Compound activity deposited in PubChem BioAssay by National Center for Advancing Translational Sciences (NCATS).
HPGD inh: qHTS Assay for Inhibitors of HPGD (15-Hydroxyprostaglandin Dehydrogenase); 15-hydroxyprostaglandin dehydrogenase [NAD(+)] (Homo sapiens), P15428; purified HPGD, NADH fluorescence kinetic, PGE2 substrate; Potency, µM, without a hit: top-dose activity change, negative = inhibition, actives largely listed as inhibitors; 150,000 compounds, 4.3% hits; active = well fitted inhibition curve with a large enough effect (not every such curve was filed as active); inconclusive = small, poorly fitted or top-dose-only effect, or another doubt; inactive = no such curve, though single readings can be large or run the other way;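 also: top concentration of the series not given in the record; plate controls included wells without enzyme; inactives centre near -10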
Target sequence (P15428 whole entry, looked up): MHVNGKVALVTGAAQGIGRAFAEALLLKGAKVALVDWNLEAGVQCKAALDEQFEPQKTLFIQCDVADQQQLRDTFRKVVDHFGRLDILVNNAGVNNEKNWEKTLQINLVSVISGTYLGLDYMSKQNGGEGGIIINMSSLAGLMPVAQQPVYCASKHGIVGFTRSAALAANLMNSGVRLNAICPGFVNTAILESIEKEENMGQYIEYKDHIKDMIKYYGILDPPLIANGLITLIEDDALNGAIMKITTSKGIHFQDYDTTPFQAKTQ
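20 nM HPGD preincubated 15 min at room temperature with compound in 50 mM Tris-HCl pH 8, 0.01% Tween 20. Started with 1 mM NAD+ and 30 uM prostaglandin E2; NADH fluorescence (360/450 nm) read 5 times over 30-s intervals, last minus first.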
Active calls of the source: *; u = inconclusive; & = joins results of further samples. % is scaled to controls: 0 for no effect and ±100 for the full control effect; potency is read from the fitted curve at half-maximal effect.

HPGD inh	Molecule
-28%	O=C(NNc1ccc(C(F)(F)F)cc1[N+](=O)[O-])c1ccc(NS(=O)(=O)c2ccc(F)cc2)cc1
u	COc1cc(NC(=O)c2cccs2)c(C(=O)OCC(=O)NCc2ccccc2)cc1OC
-5%	COc1ccc(CNC(=O)CN=C2NC(=O)C(c3ccccc3)(c3ccccc3)N2)cc1
-5%	COc1cccc(N2CCN(C(=O)NC3CCCCC3)CC2)c1
0%	COc1ccc(NC(C)=O)cc1NC(=O)CSc1nnc(-c2ccccn2)n1C
-1%	CCC1(O)CC(C(=O)OC)=NN1C(=O)c1ccccc1 (centres undefined)
-10%	Cc1cc(=O)oc2c(OS(C)(=O)=O)c(OS(C)(=O)=O)ccc12
-15%	Cn1c(=O)c2c(nc(SCC(=O)NCc3ccc4c(c3)OCO4)n2Cc2ccc(Cl)cc2)n(C)c1=O
-13%	CCc1cc2c(=O)nc3n(c2s1)Cc1ccccc1/C3=C(/O)c1cccc([N+](=O)[O-])c1
-18%	CC1(C)OC(=O)C(=CNc2ccccc2)C(=O)O1
-4%	COc1ccc(N2C(=O)C3C4C=CC(C4)C3C2=O)c(OC)c1 (centres undefined)
-10%	COC(=O)[C@H](Cc1ccccc1)NC(=O)O[C@@H]1Cc2cc(OC)ccc2O[C@H]1c1cccc(OC)c1
1%	COc1cc(NC(=O)CSc2ccccc2)c(C(=O)O)cc1OC
28µM*	CCCOc1ccc(CN(CCC#N)C(=S)NC(=O)c2ccccc2)cc1
16µM*	Cc1cc(C)c(C#N)c(SCS(=O)c2ccc(C(C)(C)C)cc2)n1 (centres undefined)
-16%	COc1ccc(N(CC(=O)N/N=C/c2cccs2)S(=O)(=O)c2ccc(OC)c(OC)c2)cc1
u	S=c1[nH]nc(Cc2ccccc2)n1-c1ccccc1
-25%	CC(C)Cn1c(=O)c2ccccc2c2ccccc2c1=O
-6%	CCCCCOc1ccc(C(=O)NCC(=O)NCC(=O)OCC)cc1
u	CC1CC(C)CN(c2ncc3c(n2)CC(c2ccccc2)CC3=O)C1 (centres undefined)
-12%	CCc1ccc(-c2csc(NC(=O)C3CCCO3)c2C(=O)OC(C)C)cc1 (centres undefined)
-13%	Cc1noc(C)c1COc1ccc(C(=O)NCc2ccccn2)cc1
-13%	CCN(CC)CCN1C(=O)C(=O)/C(=C(/O)c2ccc(C)cc2)C1c1ccncc1 (centres undefined)
u	CCN(CC)CC[n+]1ccc2c(C)c3[nH]c4ccc(O)cc4c3c(C)c2c1
-17%	O=C(N/N=C/c1ccc(Br)cc1)c1ccc(F)cc1
-12%	COc1ccc2c(c1)CCC1C2CC[C@@]2(C)C1CC[C@@H]2NCCCCCCN1C(=O)C=CC1=O (some centres undefined)
-7%	Cc1ccc(C(=O)NC(=S)N2CCN(C)CC2)cc1
-4%	O=C(O)CC(C(=O)OCCOc1ccccc1)N1CCOCC1 (centres undefined)
4µM*	CCOc1ccccc1C(=O)NCc1ccc2c(c1)OCO2
-7%	COC(=O)c1ccc2ncccc2c1
-14%	CN1CCN(C(=O)CCc2nc3ccccc3n2-c2ccccc2)CC1
u	COc1ccc(OC)c(C2C3CN(C(C)C)CC=C3C(C#N)=C(N)C2(C#N)C#N)c1 (centres undefined)
-1%	Cc1ccc(C(=O)NC2CCS(=O)(=O)C2)cc1S(=O)(=O)N1CCOCC1 (centres undefined)
-11%	Cn1cc([N+](=O)[O-])c(C(=O)Nc2ccn(Cc3c(F)c(F)cc(F)c3F)n2)n1
-15%	O=C(Cc1ccccc1)NC(Nc1cccc2ccccc12)C(Cl)(Cl)Cl (centres undefined)
u	Cc1cccn2c(=O)c3cc(C(=O)NCCCN4CCCC4=O)n(C)c3nc12
u	Cc1ccc(/C=N/NC(=O)C2(O)c3ccccc3-c3ccccc32)o1
-10%	Cc1ccc(C)c2[nH]c(=O)c(CN(Cc3cccs3)C(=S)NCc3ccco3)cc12
-4%	Cc1ccc(CN2CCN(/N=C/c3cccnc3)CC2)cc1
-7%	CC(=O)CC(=O)NC(=NC1CCCCC1)Nc1nc(C)cc(C)n1
-24%	O=C(CNC(=O)c1cccc(F)c1)OCC(=O)N1CCCc2ccccc21
-12%	Cc1noc(C)c1COc1ccc(C(=O)OCC(=O)N2CC3(C)CC2CC(C)(C)C3)cc1 (centres undefined)
-9%	O=C(Cn1c(=O)oc2cc(S(=O)(=O)N3CCCC3)ccc21)N1CCN(c2ccccc2)CC1
-1%	O=C(O)C1CC=CCC1C(=O)Nc1ccccc1C(=O)N1CCN(c2ccccc2)CC1 (centres undefined)
u	O=C(COc1ccccc1)Nc1nccs1
-10%	COc1ccc(NC(=O)COC(=O)CNS(=O)(=O)c2ccc(F)c(F)c2F)cc1OC
14µM*	CCOc1c(Cl)cc(C(=O)Nc2ccccc2C(=O)O)cc1Cl
11%	O=C(CSc1nnc(CNc2cccc(C(F)(F)F)c2)n1Cc1ccco1)NCc1ccco1
-1%	CCCCC(CCC(=O)O)(C(=O)OCC)c1csc(N)n1 (centres undefined)
-8%	O=C(NCC1CCCO1)c1cc(-c2ccncc2)nc2ccc(S(=O)(=O)N3CCOCC3)cc12 (centres undefined)
-1%	CCOC(=O)CN(C(=O)Cn1nnc(-c2ccc(C)cc2)n1)C(CC)C(=O)NC1CCCC1 (centres undefined)
-7%	CCc1ccc(N(CC(=O)Nc2ccc(NC(C)=O)cc2)S(=O)(=O)c2ccccc2)cc1
16µM*	Cc1[nH]c2ccc(-c3nnc(SCC(=O)NCc4ccco4)n3Cc3ccccc3)cc2c1C
-16%	Cn1c(NCCCN2CCOCC2)nc2c1c(=O)n(Cc1ccc(Cl)c(Cl)c1)c(=O)n2C
u	CN(C)c1nc(NCc2ccccc2)nc(Oc2ccc(=O)[nH]n2)n1
-2%	O=S(=O)(c1ccc(N2CCN(CCO)CC2)nc1)N1CCCCC1
-11%	COc1ccc(NC(=O)c2cc(CC(C)C)on2)cc1OC
-1%	O=C(c1ccco1)N1CCN(c2cccc(Cl)c2)CC1
-12%	Cn1cccc1Cc1nnc(SCC(=O)NCc2ccccc2)n1-c1ccc(F)cc1
-12%	Cc1ccc(Cn2ccc(NC(=O)c3nn(C)cc3Cl)n2)cc1

Other results:
HPGD inh	Molecule
-11%	CCOc1ccccc1C1C(C(N)=O)=C(C)Nc2nc(CCCO)nn21 (centres undefined)
-16%	O=C(OCC1OC(n2ccc(=O)[nH]c2=O)C(O)C1OC(=O)c1ccccc1)c1ccccc1 (centres undefined)
-10%	Cc1cc(C)cc(OCC(=O)Nc2ccccc2C(=O)NCc2ccco2)c1
-20%	Cc1ccnc2nc(C(=O)NCCc3ccc(F)cc3)nn12
-19%	Cn1c(NNC(=O)CCC2CCCCC2)cc(=O)n(C)c1=O
-10%	O=C(CCC(=O)OCC(=O)c1ccccc1)Nc1cccc(Cl)c1
-4%	CC(=O)OC[C@@]12C(=O)[C@@H](O)[C@@H](C)[C@]3(C[C@@H](c4ccoc4)O[C@@H]3OC(C)=O)[C@H]1CCC[C@]21CO1
32µM*	CCOC(=O)C1=C(O)/C(=C\c2ccc(CNC(=O)C(=O)Nc3ccccc3)o2)N=C1C
-13%	Cc1c(C#N)c2ccccc2n1CC(=O)N1CCCC1
-6%	COCCNC(=S)N1CCc2cc(OC)c(OC)cc2C1COc1ccc(C(C)C)cc1 (centres undefined)
-8%	Cc1sc(N2C(=O)C3C4C=CC(C4)C3C2=O)c(C#N)c1C (centres undefined)
-12%	CCOCCCNS(=O)(=O)c1ccc(NC(=O)c2ccc([N+](=O)[O-])cc2Cl)cc1
-8%	CN1CCN(S(=O)(=O)c2cccc(S(=O)(=O)c3ccc(Cl)cc3)c2)CC1
u	CC(C)Cc1nc(N2CCN(C(=O)c3ccco3)CC2)c(C#N)c2c1CCC2
-1%	NS(=O)(=O)c1cc2c(cc1Cl)N[C@@H]([C@@H]1C[C@@H]3C=C[C@H]1C3)NS2(=O)=O
-4%	CC12C=C(/C=C/CCc3ccco3)C(C)(C1)[C@H](CCc1ccco1)CC2=O (some centres undefined)
u	COCCn1c(=O)[nH]c2cc(C(=O)NC(C)C)ccc2c1=O
-8%	CCOC(=O)Cc1csc(NC(=O)CCCCCN2C(=O)c3ccccc3C2=O)n1
-6%	COC(=O)c1cc([N+](=O)[O-])c(-n2ccnc2)c([N+](=O)[O-])c1
-20%	COc1cccc(/C(O)=C2/C(=O)C(=O)N(CCN(C)C)C2c2ccccn2)c1 (centres undefined)
-12%	c1cncc(-c2nn[nH]n2)c1
-5%	COc1cccc(Nc2ncc3nc(C)c(=O)n(CCC#N)c3n2)c1
u	N#Cc1cc2c(=O)n3ccccc3nc2n(Cc2ccco2)c1=NC(=O)c1ccco1
-18%	O=C(Nc1nccs1)C(=O)c1c[nH]c2ccccc12

Molecules shown so far containing an NH in an aromatic ring, in the order listed:
HPGD inh	Molecule
u	S=c1[nH]nc(Cc2ccccc2)n1-c1ccccc1
u	CCN(CC)CC[n+]1ccc2c(C)c3[nH]c4ccc(O)cc4c3c(C)c2c1
-10%	Cc1ccc(C)c2[nH]c(=O)c(CN(Cc3cccs3)C(=S)NCc3ccco3)cc12
16µM*	Cc1[nH]c2ccc(-c3nnc(SCC(=O)NCc4ccco4)n3Cc3ccccc3)cc2c1C
u	CN(C)c1nc(NCc2ccccc2)nc(Oc2ccc(=O)[nH]n2)n1
-16%	O=C(OCC1OC(n2ccc(=O)[nH]c2=O)C(O)C1OC(=O)c1ccccc1)c1ccccc1 (centres undefined)
u	COCCn1c(=O)[nH]c2cc(C(=O)NC(C)C)ccc2c1=O
-12%	c1cncc(-c2nn[nH]n2)c1
-18%	O=C(Nc1nccs1)C(=O)c1c[nH]c2ccccc12

Nothing new here: an excerpt of the list.
HPGD inh	Molecule
-5%	COc1cccc(Nc2ncc3nc(C)c(=O)n(CCC#N)c3n2)c1
u	N#Cc1cc2c(=O)n3ccccc3nc2n(Cc2ccco2)c1=NC(=O)c1ccco1
-18%	O=C(Nc1nccs1)C(=O)c1c[nH]c2ccccc12

The listing continues:
HPGD inh	Molecule
u	Cc1c(C(=O)O)oc2ccc(S(=O)(=O)N3CC(C)CC(C)C3)cc12 (centres undefined)
-17%	O=C(NC1CC1)c1ccc(S(=O)(=O)NC2CCCCCC2)cc1
1%	O=C(NC(Cc1ccccc1)C(=O)O)c1ccc(S(=O)(=O)N2CCCCC2)cc1 (centres undefined)
-4%	Cc1nc(N2CCC(C(N)=O)CC2)c2nnn(Cc3ccccc3)c2n1
-4%	Cc1onc(-c2c(Cl)cccc2Cl)c1C(=O)N1C=CC(C(F)(F)F)=NCC1
1.4µM*	O=C(Nc1ccc(Oc2ccc(NC(=O)C3CCCO3)cc2)cc1)C1CCCO1 (centres undefined)
-8%	CC(C)(C)C(=O)NC(NC(=O)C(C)(C)C)c1ccc([N+](=O)[O-])cc1
-11%	O=C(COC(=O)c1ccc(Br)o1)NCC1CCCO1 (centres undefined)
-12%	COCCN1C(=O)N[C@@H](c2ccccc2)[C@@H](C(=O)OC)[C@H]1C
-14%	Cc1cccc(OCc2nnc(SCC(=O)OC3CCCCC3)o2)c1
0%	O=C(CSc1nc2[nH]ncc2c(=O)n1-c1ccccc1)c1ccc2c(c1)OCCO2
-21%	CC12C(=O)N(Cc3ccco3)C(=O)C1C1c3ccccc3C2c2ccccc21 (centres undefined)

Structures listed so far that contain a tert-butyl group, in the order listed:
HPGD inh	Molecule
16µM*	Cc1cc(C)c(C#N)c(SCS(=O)c2ccc(C(C)(C)C)cc2)n1 (centres undefined)
-8%	CC(C)(C)C(=O)NC(NC(=O)C(C)(C)C)c1ccc([N+](=O)[O-])cc1

Next part:
HPGD inh	Molecule
-6%	Cc1ccc2nc(NC(=O)CSCc3ccccc3)sc2c1
-3%	O=C(NC1CCCCC1)NC1(C(=O)N2CCN3CCCC3C2)CCCCC1 (centres undefined)
16µM*	O=C1NN(c2ccccc2)C(=O)/C1=C\c1ccccc1OCC(=O)N1CCOCC1
-27%	Oc1ccc(N2CCN(C(c3ccccn3)c3nnnn3C3CCCC3)CC2)cc1 (centres undefined)
3.2µM*	CC(=O)C(C(C)=O)c1c(Cl)c(O)c(O)c2c(C(=O)c3ccccc3)coc12
-12%	O=[N+]([O-])c1ccc(CN2CCOCCOCCOCC2)cc1
-5%	CN1C(=O)CSc2ccc(NC(=O)N3CCC(N4CCCCC4)CC3)cc21
u	O=C(N/N=C/c1cccnc1)c1ccc2c(c1)OCCO2
-7%	Cc1csc(NC(=O)c2ccccc2[N+](=O)[O-])n1
-9%	CCOC(=O)CNC(=O)c1cccnc1
-7%	C/C(=N\O)C(=O)OC1CC(C)CCC1C(C)C (centres undefined)
u	O=C(CSCC(=O)N1CCCCC1)Nc1nc(-c2ccc(Cl)s2)cs1
-12%	CCc1nc(SCC(=O)NCc2ccco2)c2c3c(sc2n1)CCCC3
-12%&3%&3%	CCS(=O)(=O)CCn1c([N+](=O)[O-])cnc1C
-27%	Cc1noc(C)c1CSc1ccc(Br)cc1
-13%	COc1ccc(Oc2nc(C)nc3c2oc2ccccc23)cc1
-6%	CC(C)CC(c1nnnn1C1CCCC1)N1CCN(C(=O)c2ccco2)CC1 (centres undefined)
-2%	O=C(COc1ccc(S(=O)(=O)NC2CCCCC2)cc1Cl)NCC1CCCO1 (centres undefined)
22µM*	CCOC(=O)c1cc([N+](=O)[O-])c([N+](=O)[O-])cc1NC(C)=O
-5%	Cc1cc(/C=N/n2cnnc2)c(C)n1-c1ccc(Cl)cc1Cl

The list is partial; count on the stated rates, not on these rows.
